Compound activity as filed in PubChem BioAssay.
WNV NS2B-NS3 inh: blocks West Nile virus NS2B-NS3 protease activity. P06935. WNV NS2B-NS3 protease, fluorogenic substrate Ex360/Em465; stronger effect = lower value. z-score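 (tested at a level between 10 and 100 µM)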. 65,000 tested, 0.18% active;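 active = z-score at -3 or under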;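 also: score is relative to mean and spread of the compound wells of a plate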
Target sequence (P06935 1371-1501 limits assumed): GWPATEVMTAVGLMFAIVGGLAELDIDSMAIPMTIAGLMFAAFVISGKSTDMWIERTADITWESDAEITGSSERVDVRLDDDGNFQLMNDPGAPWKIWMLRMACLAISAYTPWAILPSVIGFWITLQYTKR
Target sequence (P06935 1502-1679 limits assumed): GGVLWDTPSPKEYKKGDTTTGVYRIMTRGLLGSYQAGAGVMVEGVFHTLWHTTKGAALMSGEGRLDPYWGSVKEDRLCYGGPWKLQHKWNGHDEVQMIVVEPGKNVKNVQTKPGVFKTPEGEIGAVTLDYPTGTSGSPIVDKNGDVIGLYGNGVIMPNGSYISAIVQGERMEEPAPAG
Hsc70 ATP site: small molecules displacing fluorescent ligand from Hsc70 – biochemical, fluorescence polarization, primary screen (AID 568) | one-dose displacement, % at 20 µM; IC50 in µM for titrated hits | 83,000 tested, under 10 active | Hsc70 fluorescence polarization, probe displacement; higher % means a stronger effect; strong numbers were not always called active;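 active = displacement above 50% without optical interference and an IC50 on retest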;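 also: ATPase domain with a fluorescein-tagged ATP probe; 0% = vehicle and 100% = excess ADP; read after one hour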
MT1-MMP reporter: inhibitors of MT1-MMP promoter transcription, cell-based, luciferase reporter, luminescence (AID 618); MT1-MMP promoter luciferase reporter cells, luminescence; calls from a first round at 10 µM; hits with a dose series show EC50 in µM; 87,000 tested, 0.62% active;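 active = over half of the reporter light lost at 10 µM or EC50 under 50 µM; inactive = the rest and hits that failed the dose series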;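 also: actives suppress MT1-MMP promoter-driven transcription so potencies describe inhibitors; HT1080 fibrosarcoma cells; overnight exposure; toxic or luciferase-blocking compounds were not removed from the actives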
* marks the source's active call; other numbers are inactive results; i = inactive; · = not tested or not shown. This is a subset, so the mix of outcomes need not match the whole.

mol | Hsc70 ATP site | WNV NS2B-NS3 inh | MT1-MMP reporter
COc1ccc(/C(O)=C2/C(=O)C(=O)N(c3ncccn3)C2c2ccc(OC)c(OC)c2)cc1 (stereo not given) | 3.4% | -0.09 | i
O=C(CCn1nnc2ccccc2c1=O)NCC1CCC(C(=O)O)CC1 (stereo not given) | -5.1% | -1.3 | i
COc1cc(OC)nc(NC(=O)CSc2nc3ccccc3o2)n1 | 1.0% | 0.04 | i
CSc1nc(NCc2ccco2)c2c3c(sc2n1)CN(C)CC3 | -4.0% | 0.51 | i
COC(=O)c1n[nH]c2ccccc12 | 1.1% | 0.06 | i
Cc1ccccc1C(=O)N1CCC(C(N)=O)CC1 | 3.5% | · | i
CC(=O)/C(C#N)=C1\NC(=O)C(Cc2ccccc2)S1 (stereo not given) | 2.8% | -0.01 | i
C=CCn1c(=O)c2c(nc3n2CCN3c2cccc(Cl)c2C)n(C)c1=O | -4.9% | 0.12 | i
Cc1nnc(SC(C)C(=O)Nc2ncc(Cl)cc2Cl)n1Cc1ccccc1 (stereo not given) | 0.9% | · | i
Cc1ccccc1CS(=O)(=O)Cc1ccc(C(=O)NCCCN2CCOCC2)o1 | 0.0% | 1.1 | i
COc1cccc(C2=Nn3c(nnc3-c3ccccc3O)SC2)c1 | 0.3% | -0.08 | i
Cc1nc(SCC(=O)N2CCOCC2)c2ccsc2n1 | -0.7% | -0.67 | i
COc1ccccc1Cn1nnc2c(=O)[nH]c(C3CCN(C(=O)c4ccccc4Cl)CC3)nc21 | -2.3% | -0.6 | i
CN1CCN(C(=O)c2cc3nc(-c4ccc(F)cc4)cc(C(F)(F)F)n3n2)CC1 | 11% | -0.83 | i
COc1ccccc1CNC(=O)C(C)NS(=O)(=O)c1ccc(C)cc1 (stereo not given) | 1.1% | -0.38 | i
COc1ccc(-c2c3c(nc4sc(C(=O)Nc5cc(C)on5)c(N)c24)CCC3)cc1 | -22% | -0.45 | i
CCCC(=O)Nc1nnc(-c2ccc(Cl)s2)o1 | -1.3% | -0.52 | i
COc1cccc(OC)c1OCCCN1CCOCC1 | -2.8% | -0.12 | i
CC/C(C)=C1\SC(N2CCN(C(C)=O)CC2)=NC1=O | 4.1% | -0.27 | i
O=S(=O)(c1ccc2ccccc2c1)n1cnc2ccccc21 | -4.5% | -1.2 | i
COCCCn1c(SCC(=O)Nc2nnc(C)s2)nnc1-c1ccoc1C | -1.6% | -1.2 | i
O=C(COc1ccccc1)NC1CCN(Cc2ccccc2)CC1 | 4.9% | 1.7 | i
Cc1[nH]n(-c2ccccc2)c(=O)c1S(=O)(=O)c1ccccc1 | -5.4% | -0.59 | i
COc1ccc(C2C(C(=O)NCC3CCCO3)CCC(=O)N2c2ccc3c(c2)OCO3)cc1 (stereo not given) | -1.1% | 2.2 | i
COc1cccc(C2NC(CC(C)C)(C(=O)O)C3C(=O)N(Cc4ccccc4)C(=O)C23)c1O (stereo not given) | -5.9% | 0.29 | i
CC(CN1CCCCC1)OC(=O)c1ccccc1Cl (stereo not given) | 4.9% | -0.57 | i
CCS(=O)(=O)c1ccc(O)c(N2C(=O)C3C4C=CC(C4)C3C2=O)c1 (stereo not given) | 2.9% | -2.5 | i
O=C(c1c(Cl)nc2sccn12)N1CCCc2ccccc21 | -2.2% | -0.96 | i
O=C1CCC(=O)N1c1cccc(-c2nc3ccccc3o2)c1 | 2.4% | -0.92 | i
COC(=O)CSC1=C(C#N)C(=O)NC(c2ccccc2)S1 (stereo not given) | 1.4% | · | i
COc1ccc(C(=O)c2coc3ccc(O)c(CN4CCOCC4)c23)cc1 | -1.0% | 0.37 | i
COC(=O)c1ccc(NC(=O)c2ccc3c(c2)OCO3)cc1 | 7.0% | 0.18 | i
CCOC(=O)C1CCN(Cc2cccc(OC)c2)CC1 | 0.8% | · | i
COc1cccc(CN2C(=O)C3(C(C#N)=C(N)OC4=C3C(=O)CCC4)c3ccccc32)c1 (stereo not given) | 0.8% | -0.24 | i
CCN1CCN(C(=O)c2cnn3c(C(F)F)cc(-c4ccc(C)cc4)nc23)CC1 | -1.3% | 0.68 | i
CC1CCC(NS(=O)(=O)c2ccc3c(c2)n(C)c(=O)c(=O)n3C)CC1 (stereo not given) | -8.0% | -1 | i
CN1C(=O)NC(c2ccc(O)cc2)C(C(=O)c2cccs2)C1(O)C(F)(F)F (stereo not given) | -5.3% | 0.2 | i
C=CCN1C(=O)/C(=C2/Sc3ccccc3N2CCCS(=O)(=O)O)SC1=S | 2.2% | -1.1 | i
Clc1ccc(OCc2cn3cccnc3n2)c2ncccc12 | 0.9% | 0.58 | i
O=C(Nc1cccc(C(=O)N2CCOCC2)c1)c1cccnc1 | -0.4% | 0.04 | i
Cc1ccc2c(c1)CCCN2C(=O)C1CCCO1 (stereo not given) | 8.7% | -0.35 | i
CCn1c(=O)cc(OCC(=O)Nc2cc(C)ccn2)c2ccccc21 | -2.1% | -0.13 | i
CCOc1ccc(C2CC(c3ccc(F)cc3)Nc3nc(N)nn32)cc1 (stereo not given) | 4.0% | -0.77 | i
CCCC(c1nnnn1CCc1ccccc1)N1CCN(C2CCCC2)CC1 (stereo not given) | -6.2% | -0.53 | i
Cc1ccc(-c2csc(N3N=C(c4ccccc4)/C(=C\c4ccc(N(C)C)cc4)C3=O)n2)cc1 | -0.7% | · | i

One compound at a time, as listed above. Values in the order: Hsc70 ATP site, WNV NS2B-NS3 inh, MT1-MMP reporter
`COc1ccc(C(=O)c2coc3ccc(O)c(CN4CCOCC4)c23)cc1` is listed as -1.0%, 0.37, i
`COC(=O)c1ccc(NC(=O)c2ccc3c(c2)OCO3)cc1` is listed as 7.0%, 0.18, i

(next part)
mol | Hsc70 ATP site | WNV NS2B-NS3 inh | MT1-MMP reporter
O=S1(=O)CCC(S(=O)(=O)N2CCCCCC2)C1 (stereo not given) | -1.3% | 0.53 | i
CC(C)(C)n1cnc2cc(NS(=O)(=O)c3ccc(Br)cc3)ccc21 | -2.9% | -0.38 | i
CC(=O)N1CCN(CC(=O)Nc2c(Cl)cc(Cl)cc2Cl)CC1 | -8.7% | 0.23 | i
CC(C)CC(NC(=O)C(CC(C)C)NC(=O)OC(C)(C)C)C(N)=O (stereo not given) | 8.7% | · | i
CSc1ccccc1NC(=O)c1onc(C)c1Cl | 2.9% | -0.01 | i
COc1ccc(Br)cc1C(=O)NCc1cccnc1 | -2.8% | -0.14 | i
COc1ccccc1C(c1nnnn1C(C)(C)C)N1CCN(C(=O)c2ccco2)CC1 (stereo not given) | 5.7% | 1.2 | i
CCC(CC)C(=O)Nc1cccc(C(=O)NCc2ccco2)c1 | 4.0% | 1.6 | i
O=C(CN1CCN(c2ccccc2)CC1)N1CCN(c2ccccc2)CC1 | 3.1% | -0.12 | i
O=C(CCc1ccc(S(=O)(=O)N2CCOCC2)cc1)NCCc1ccccn1 | 8.2% | 0.92 | i
O=C(CSc1nc(-c2ccccc2)cc(C(F)(F)F)n1)N1CCOCC1 | 6.1% | · | i
CCC1CCCCN1CCn1c(=S)[nH]c2cc(OC)c(OC)cc2c1=O (stereo not given) | 1.2% | 0.04 | i
Cc1ccc2c(c1)N(CC(=O)NC1CCC(C)CC1)C(=O)CO2 (stereo not given) | -1.4% | -0.25 | i
Cc1ccc(NC(=O)c2cccc(OCc3c(C)noc3C)c2)cc1 | -2.1% | · | i
Cc1ccccc1-c1nc(CS(=O)CC(=O)NCCCN(C)c2ccccc2)c(C)o1 (stereo not given) | -1.6% | -0.01 | i
CC(=O)Nc1c(O)nc(SCC(=O)Nc2nnc(CC(C)C)s2)[nH]c1=O | 0.5% | 0.06 | i
O=C(Nc1nc(=S)ss1)c1ccc(Cl)cc1Cl | -0.8% | · | i
COCCN(C(=O)C(C)C)c1nnc(-c2cccc(C)c2)s1 | -0.1% | -0.92 | i
CCN(CC)c1ncccc1C(=O)NCc1cccs1 | -2.0% | 0.87 | i
COC(=O)c1cc(NC(=O)CN2CCOCC2)cc(C(=O)OC)c1 | 2.5% | -0.84 | i
Cc1ccccc1-c1nc(CN2CCC(C(=O)N3CCN(c4ccccn4)CC3)CC2)c(C)o1 | -3.5% | 0.25 | i
COc1ccccc1NC(=O)C1CC(=O)OC1c1ccccc1 (stereo not given) | -6.4% | -1.2 | i
O=C(O)CSc1nnc(-c2cccs2)n1-c1ccc(Cl)cc1 | 0.0% | 0.2 | i
O=C(NCc1ccccn1)c1cc(S(=O)(=O)N2CCN(c3ccccc3)CC2)ccc1Cl | 7.8% | -0.36 | i
CCc1cc2cc3c(cc2nc1SCC(=O)N1CCN(C(=O)c2ccco2)CC1)OCO3 | -8.8% | -0.18 | i
c1csc(-c2nn[nH]n2)c1 | -1.1% | 1.9 | i
O=C(NCc1ccco1)c1nnc(Cc2ccc(F)cc2)o1 | 9.2% | 0.3 | i
c1ccc(C(c2ccccc2)N2CCN(Cc3nnnn3C3CCCC3)CC2)cc1 | -3.4% | 0.06 | i
COC(=O)c1nnn(-c2nonc2N)c1CSc1ccc(Cl)cc1 | 0.0% | -0.9 | i
O=C(O)C1C2C=CC(C2)C1C(=O)N1CCOCC1 (stereo not given) | -7.9% | -0.58 | i

In another format: entries from further up.
CC(=O)N1CCN(CC(=O)Nc2c(Cl)cc(Cl)cc2Cl)CC1
  Hsc70 ATP site: -8.7%	WNV NS2B-NS3 inh: 0.23	MT1-MMP reporter: i
Cc1ccc2c(c1)CCCN2C(=O)C1CCCO1 (stereo not given)
  Hsc70 ATP site: 8.7%	WNV NS2B-NS3 inh: -0.35	MT1-MMP reporter: i
COc1ccccc1C(c1nnnn1C(C)(C)C)N1CCN(C(=O)c2ccco2)CC1 (stereo not given)
  Hsc70 ATP site: 5.7%	WNV NS2B-NS3 inh: 1.2	MT1-MMP reporter: i
Cc1ccccc1CS(=O)(=O)Cc1ccc(C(=O)NCCCN2CCOCC2)o1
  Hsc70 ATP site: 0.0%	WNV NS2B-NS3 inh: 1.1	MT1-MMP reporter: i

New compounds follow.
mol | Hsc70 ATP site | WNV NS2B-NS3 inh | MT1-MMP reporter
Cc1n[nH]c(C)c1Sc1ccccc1N=Cc1cc(Cl)cc([N+](=O)[O-])c1O | -3.2% | · | i
CCC1CCCCN1Cc1nc2c(c(=O)n(C)c(=O)n2C)n1CCCc1ccccc1 (stereo not given) | -0.8% | 0.49 | i
COCCN1Cc2cccc(C(=O)Nc3ccccc3OC)c2C1=O | 6.6% | -0.41 | i
Cc1ccc(CSC2=Nc3ccccc3C3=NC(CCC(=O)NCc4ccco4)C(=O)N23)cc1 (stereo not given) | 3.6% | -0.32 | i
COc1ccccc1-n1cnnc1SCc1csc(-c2ccccc2)n1 | -0.4% | · | i
CCCCCCC(=O)N(O)C1CC(=O)N(Cc2ccccc2)C1=O (stereo not given) | -1.6% | -0.97 | i
COc1cc(C2Nc3ccccc3C(=O)N2c2ccccc2)ccc1O (stereo not given) | -8.1% | · | i
Cn1cnnc1SC1CCCCC1NS(=O)(=O)c1ccc(Cl)cc1 (stereo not given) | 4.3% | · | i
COc1ccc2c(c1)[nH]c1c(N3CCN(Cc4ccc5c(c4)OCO5)CC3)ncnc12 | 5.0% | -0.09 | i
CCOC(=O)CSc1nc(N)nc(C)c1Br | -6.3% | -0.99 | i
O=C(O)C1C2C=CC(C2)C1C(=O)N1CCN(C/C=C/c2ccccc2)CC1 (stereo not given) | 1.6% | 1.2 | i
CCc1nc(SCC(=O)NCCc2ccc(OC)c(OC)c2)c2c(=O)n(C)c(=O)n(C)c2n1 | 8.9% | 0.86 | i
COC(=O)c1ccc(OC)c(CSc2nnc(COc3ccc(Cl)cc3)o2)c1 | -1.7% | 0.5 | i
COCCCNC(=O)Cn1nc(-c2ccccc2OC)ccc1=O | 2.7% | · | i
COc1ccc(C(c2nnnn2CCc2ccccc2)N2CCN(C)CC2)cc1OC (stereo not given) | 0.3% | 0.1 | i
CCOC(=O)/C(C#N)=C/C1=C(N2CCCC2)CC(C)(CC)OC1 (stereo not given) | 0.8% | · | i
O=c1c(=O)n(O)c2ccccc2n1O | 3.3% | 0.05 | i
CCCCn1c(N)c(N(CC(C)C)C(=O)CN(C)Cc2cccc(OC)c2)c(=O)[nH]c1=O | -2.4% | · | i
O=c1[nH]nc(Cc2ccccn2)c2ccccc12 | -10% | 0.5 | i
CN1CCN(C2CCCCCC2)CC1 | 1.4% | 0.35 | i
CCn1c2ccccc2c2cc(NC(=O)CSc3nnc(-c4ccc(OC)cc4)n3N)ccc21 | -1.1% | · | i
Cc1cccc(-n2c(CNC(=O)COc3ccccc3)nnc2SCC(=O)Nc2nccs2)c1 | 13% | -0.09 | i
Cc1cc2oc3c(c(=O)c2cc1C)C(c1cccc(Br)c1)N(Cc1ccco1)C3=O (stereo not given) | -1.2% | 0.59 | i

Copied from the list:
WNV NS2B-NS3 inh result of CN1CCN(C2CCCCCC2)CC1 stands at 0.35
WNV NS2B-NS3 inh result of O=c1[nH]nc(Cc2ccccn2)c2ccccc12 stands at 0.5
Hsc70 ATP site result of CCCCn1c(N)c(N(CC(C)C)C(=O)CN(C)Cc2cccc(OC)c2)c(=O)[nH]c1=O stands at -2.4%
